# High-throughput results from PubChem.
# TRPML1 ag: qHTS for Agonists of the Human Mucolipin Transient Receptor Potential 1 (TRPML1) | TRPML1-expressing cells, Ca2+ dye fluorescence, FDSS; host cell line not named in the record; reference of the full effect not given here | AID 624414, 2012 | actives 0.12% (n = 410,000) | activation, % (test concentration not listed); in the data active = activation above about 50%; inconclusive = about 30% to 50%; inactive = below about 30%; also: 0% is about no effect; the text of the record puts the active cut at 80%
# Target sequence (Q9GZU1 whole entry, looked up): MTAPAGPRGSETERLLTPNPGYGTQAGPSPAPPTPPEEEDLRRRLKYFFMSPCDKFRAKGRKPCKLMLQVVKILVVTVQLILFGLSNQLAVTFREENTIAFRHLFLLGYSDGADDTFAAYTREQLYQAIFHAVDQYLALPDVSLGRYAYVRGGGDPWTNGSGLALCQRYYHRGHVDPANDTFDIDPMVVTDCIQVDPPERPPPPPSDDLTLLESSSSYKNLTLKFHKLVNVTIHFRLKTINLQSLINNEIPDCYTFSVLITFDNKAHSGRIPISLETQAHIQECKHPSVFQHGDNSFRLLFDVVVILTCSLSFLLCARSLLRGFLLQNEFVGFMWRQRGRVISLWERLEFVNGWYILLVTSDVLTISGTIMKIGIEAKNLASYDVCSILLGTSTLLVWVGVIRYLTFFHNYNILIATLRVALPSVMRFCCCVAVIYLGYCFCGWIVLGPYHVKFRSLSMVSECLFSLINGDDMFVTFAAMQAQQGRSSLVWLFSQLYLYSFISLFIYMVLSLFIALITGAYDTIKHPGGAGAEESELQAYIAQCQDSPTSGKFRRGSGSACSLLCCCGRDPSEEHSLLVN
#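 Calcium fluorescence on an FDSS kinetic reader gave the read-out. Tet-induced TRPML1-DL cells were plated overnight, dye-loaded (Ca8 with quencher, 45-90 min, room temperature, dark), then read 110 s after compound addition, and again 110 s after 4uM final 54-4 (EC80).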
# D2 PAM: Beta-Arrestin HTS for Positive Allosteric Modulators of the Human D2 Dopamine Receptor: Potentiators; actives 0.23% (n = 360,000); DiscoveRx D2 beta-arrestin cells, luminescence, 90 min; 100% = 57 uM dopamine signal; AID 624464, 2012; potentiation, % (test concentration not listed); D(2) dopamine receptor (Homo sapiens), P14416; active = potentiation of 50% or more; inconclusive = 30% to 50%; inactive = 30% or less;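 also: compound concentration not given in the record; tested on top of an EC20 dose of dopamine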
# Target sequence (P14416 whole entry, looked up): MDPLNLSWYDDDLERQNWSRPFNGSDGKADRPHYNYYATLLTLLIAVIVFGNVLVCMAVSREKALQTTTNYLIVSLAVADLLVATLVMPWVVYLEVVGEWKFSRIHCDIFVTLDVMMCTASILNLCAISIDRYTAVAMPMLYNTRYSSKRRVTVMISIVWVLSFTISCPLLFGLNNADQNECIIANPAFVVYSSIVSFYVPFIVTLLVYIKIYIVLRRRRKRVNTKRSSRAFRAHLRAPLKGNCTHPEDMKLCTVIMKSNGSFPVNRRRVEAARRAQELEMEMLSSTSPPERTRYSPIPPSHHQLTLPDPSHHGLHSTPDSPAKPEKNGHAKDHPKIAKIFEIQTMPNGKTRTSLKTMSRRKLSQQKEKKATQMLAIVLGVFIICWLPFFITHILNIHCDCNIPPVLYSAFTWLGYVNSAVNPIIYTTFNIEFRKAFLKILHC
#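 D2 cells co-treated with compound plus 50 nM dopamine (EC20) for 90 min at 37 deg C to detect potentiation. Beta-arrestin recruitment was read as enzyme-fragment luminescence after 1 h at ambient temperature. Full response was set by 57 uM dopamine.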
# Six1-Eya2 blk: qHTS Assay for Inhibitors of the Six1/Eya2 Interaction; actives 0.56% (n = 360,000); AID 651725, 2012; activity change, % (no concentration beside the values); AlphaScreen GST-Six1/His-Eya2 binding, biochemical; stronger effect = lower value; control for the full effect not named in the record; in the data active = activity change below about -65%; inconclusive = about -30% to -65%; inactive = above about -30%; also: % is scaled to controls: 0 for no effect and ±100 for the full control effect; compound concentration not given in the record
#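 Compounds are tested against tagged Six1 and Eya2 proteins bridged by glutathione donor and nickel acceptor beads; after a one-hour incubation at 37 °C without light, AlphaScreen emission is recorded.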
# D2 ag: Beta-Arrestin HTS for Positive Allosteric Modulators of the Human D2 Dopamine Receptor: Agonists; D(2) dopamine receptor (Homo sapiens), P14416; DiscoveRx PathHunter D2 beta-arrestin, luminescence, 90 min; 100% = 57 uM dopamine signal; activation, % (concentration not given with the values); actives 0.084% (n = 360,000); in the data active = activation above about 40%; inconclusive = about 15% to 40%; inactive = below about 15%; also: compound concentration not given in the record; the text of the record calls up to 30% inactive
#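 DiscoveRx PathHunter D2 beta-arrestin cells (2,100/well) attached overnight, then compound-stimulated 90 min at 37 C in HBSS/10 mM HEPES/0.1% Tween-20 buffer; beta-galactosidase complementation read by luminescence after 1 h at ambient temperature. Dopamine 57 uM final (EC100) as control.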
# PINK1 expr mod: A Quantitative High throughput Screen to Identify Chemical Modulators of PINK1 Expression | AID 624263, 2012 | PINK1 immunofluorescence, high-content cytometry, 24 h | Potency, µM (titrated, usually from 76.6 µM), for inactives: at the top dose activation (PINK1 increase), most hits filed as activators | actives 0.2% (n = 410,000); active = well fitted activation curve with a large enough effect; inconclusive = small, poorly fitted or top-dose-only effect; inactive = flat fitted curve, though single readings scatter; cell line not stated here;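 also: potency is read from the fitted curve at half-maximal effect; % of control where 0% means no effect; nearly all actives have a fitted effect of over 65% in size; a mitochondrial uncoupler was the plate control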
#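 PINK1 protein level read as immunofluorescence by microplate cytometer in a fixed, stained stable cell line after 24 h exposure to five compound concentrations, with CCCP as control.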
# CtBP-E1A inh: qHTS Assay for Inhibitors of the CtBP/E1A Interaction | activity change, % (concentration not given with the values) | actives 0.49% (n = 340,000) | CtBP / adenovirus E1A interaction (AlphaScreen) | AlphaScreen GST-E1A/His-CtBP binding, 1536-well; stronger effect = lower value; control for the full effect not named in the record | AID 651724, 2012; in the data active means activity change below about -65%; inconclusive means about -30% to -65%; inactive means above about -30%; also: % is scaled to controls: 0 for no effect and ±100 for the full control effect
#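 Homogeneous bead-based format: GST-tagged E1A captured on glutathione donor beads, His-tagged CtBP on nickel acceptor beads; compounds precede bead addition by 2 h at 37 °C.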
# * hit, by the source's call; u = inconclusive; x = no result given; & = joins results of further samples; [ ] = dose if it differs, or a comment.
# Every second line gives: Six1-Eya2 blk	TRPML1 ag	D2 ag	D2 PAM	PINK1 expr mod	CtBP-E1A inh
CSc1ccc(OC2(C)CCN(Cc3cc4ccccc4o3)C2)cc1 (configuration not stated)
→ -22	-0.1	-1.8	-18	4.4%	-11
CCCOc1ccc(Oc2nc(-c3ccncc3)nc3ccccc23)cc1
→ 1	1.0	2.3	-2	9.2%	8
O=C(COC(=O)CNC(=O)c1ccco1)Nc1ccc(F)cc1
→ 3	-0.9	-3.9	-6	-0.3%	-9
CCN(CC)S(=O)(=O)c1ccc(NC(=O)CCNC(=O)c2ccccc2)cc1
→ 13	0.0	-0.2	-7	1.4%	-8
C=CCNC(=O)c1ccc(NC(=O)CC2SC(N3CCCC3)=NC2=O)cc1 (configuration not stated)
→ 0	0.8	13	-13	-1.0%	4
CC(NC(=S)NC1CCC(C(C)(C)C)CC1)c1ccccc1 (configuration not stated)
→ -4	-0.4	-1.1	-6	u	-2
Cc1cc(NC(=O)c2cccc(S(=O)(=O)N3CCOCC3)c2)c2ccccc2n1
→ 17	-0.1	-2.5	-21	0.1%	0
Cc1cccc(NS(=O)(=O)c2ccc3c(c2)OCCO3)c1
→ -1	0.5	-0.5	-2	-1.5%[38.3 µM]	-1
CC[N+](CC)(CC#Cc1ccccc1)CC#Cc1ccccc1
→ -9	-0.9	-4.6	-11	-0.4%	-2
COc1ccc(OC)c(NS(=O)(=O)c2ccc(NC(=O)C3COc4ccccc4O3)cc2)c1 (configuration not stated)
→ -8	1.5	2.2	9	-1.1%[38.3 µM]	5
CC(=O)NC1(c2ccc(F)cc2)CCN(C(=O)c2c(F)cccc2F)CC1
→ -9	-0.4	-4.0	-14	1.3%	2
CSc1nnc(C(C)(C)C)c(=O)n1/N=C/c1ccccc1
→ -1	2.9	2.9	6	1.5%	0
Cc1cccn2cc(CNC(=O)C3CCCCC3)nc12
→ 8	-0.7	-1.1	7	3.3%	1
CC1CCCCN1Cc1c(O)ccc2c(=O)c(-c3ccc(Cl)cc3)coc12 (configuration not stated)
→ 10	-0.8&0.5	-1.9	-11	-0.9%&-0.3%	7
CCc1ccc(OCC(=O)NC(NC(=S)Nc2ccccc2OC)C(Cl)(Cl)Cl)cc1 (configuration not stated)
→ 1	3.4	4.0	-30	2.0%	5
Cc1cc(C)n2nc(SC(C)C(=O)Nc3ccccc3F)nc2n1 (configuration not stated)
→ -8	0.1	-0.7	-6	1.1%	2
CCc1ccc(-c2nc(CS(=O)CC(=O)NCCCN3CCOCC3)c(C)o2)cc1 (configuration not stated)
→ 2	-0.1	-5.1	-9	0.7%	3
COc1cc2[nH]c(=S)n(Cc3ccc(C)o3)c(=O)c2cc1OC
→ -11	0.5	-0.4	-3	3.9%[38.3 µM]	-13
CCC(C)(C)NC(=O)c1cc(C(=O)OC)cc([N+](=O)[O-])c1
→ 8	-0.2	2.0	-4	x	-2
COC(=O)c1cn(Cc2ccccn2)c(=O)c2ccccc12
→ 6	-0.3	-0.6	-1	6.0%	6
Cc1ccc(C(=O)N/N=C/C=C/c2ccccc2)cc1
→ -18	-0.3	-2.3	-10	11%	0
O=C(Nc1ccccc1)c1ccc(S(=O)(=O)NCc2ccco2)cc1
→ 2	0.8	-1.3	-2	19%	1
CN(c1ccccc1C(=O)Nc1cccnc1)S(C)(=O)=O
→ 5	-0.3	-1.8	-3	2.1%[38.3 µM]	5
CC(C)(C)N(C=C(Cl)Cl)C(=O)NC1CCCCC1
→ 0	-0.7	-4.4	-4	0.9%	-5
CN1CCN(C2=CC3=CC(=C(C#N)C#N)CCC3CC2)CC1 (configuration not stated)
→ 6	140*	4.4	6	u	-5
Cc1cc(N2C(=O)C3C4CCC(C4)C3C2=O)no1 (configuration not stated)
→ 4	0.6	2.2	2	1.5%	-3
CC1=C(C(=O)c2ccccc2)C(c2cccc([N+](=O)[O-])c2)NC(=S)N1 (configuration not stated)
→ -6	-0.5	-3.8	-3	2.2%	2
COc1ccc(CCNC(=O)C2CCCN2S(=O)(=O)c2ccc(F)cc2)cc1OC (configuration not stated)
→ -9	-0.1	-3.4	0	-2.1%	-14
COc1ccc(NC(=O)Nc2cnccn2)cc1
→ 5	0.6	-1.9	-7	-1.2%	2
CCc1cccc(NC(=O)C(NC(=O)C2CCCCC2)C(C)C)c1 (configuration not stated)
→ 4	-0.6	-5.8	-5	10.0%	-12
C(=C\c1nnc2c3ccccc3ncn12)/c1ccccc1
→ 1	0.8	-2.2	-38	-1.0%	2
COCCn1nnnc1C(C(C)C)N1CCC(Cc2ccccc2)CC1 (configuration not stated)
→ -1	0.8	-1.6	-22	u	0
Cc1cc(C)cc(Oc2ccc(-c3nnc(-c4ccccc4)o3)cc2[N+](=O)[O-])c1
→ -15	-0.5	1.0	-6	0.9%	-6
Cn1c(=O)n(C)c2cc(CNC(=O)[C@H]3O[C@@H](n4ccc(=O)[nH]c4=O)[C@H](O)[C@@H]3O)ccc21
→ 8	0.0	-4.8	-7	1.8%	-15
Cc1cc(Br)cc2c1NC(=O)C2(c1c(C)n(C)n(-c2ccccc2)c1=O)c1c(C)n(C)n(-c2ccccc2)c1=O
→ 0	-0.7	-4.3	-28	-1.4%	0
CCCCCn1c(NC2CCCCC2)nc2c1c(=O)[nH]c(=O)n2C
→ -3	0.3	-2.0	-8	6.8%	2
COC(=O)c1ccccc1NC(=O)CN(C)Cc1ccccc1
→ 14	0.2	-0.3	2	2.5%	5
CC1=CC(C)(C)N(S(=O)(=O)c2ccc(F)cc2)c2ccccc21
→ 5	1.0	-3.0	-8	7.4%[38.3 µM]	13
CCc1ccc(NC(=O)CSc2n[nH]c(=O)n2C2CC2)cc1
→ -6	-0.4	-4.9	-7	5.1%	16
COc1ccc(CN2CCN(C3CCC3)CC2CCO)c(C)c1C (configuration not stated)
→ -1	-0.4	2.2	-10	-1.2%	10
CCOC(=O)N1CCN(C(=S)NC(=O)c2ccnn2C)CC1
→ 1	0.2	-4.5	-2	0.7%	1
CCOc1ccc(NS(=O)(=O)c2ccc(C(=O)NCc3ccncc3)cc2)cc1
→ -5	7.4	2.7	-4	-0.6%	8
CC/C(O)=C(/C#N)c1nnc2n1CCCCC2
→ -1	-0.4	-0.5	-10	1.8%[38.3 µM]	6
CCN1CCN(c2nc(Nc3cccc(C)c3)nc(N)c2[N+](=O)[O-])CC1
→ -27	-0.9	-6.2	-15	8.5%	-21
C=CCC(NCc1ccccc1)c1ccc(OC)cc1 (configuration not stated)
→ 7	-0.3	-6.3	-6	5.1%	13

# The list goes on, starting with the last 6 of the part before.
# Every second line gives: Six1-Eya2 blk	TRPML1 ag	D2 ag	D2 PAM	PINK1 expr mod	CtBP-E1A inh
COc1ccc(CN2CCN(C3CCC3)CC2CCO)c(C)c1C (configuration not stated)
→ -1	-0.4	2.2	-10	-1.2%	10
CCOC(=O)N1CCN(C(=S)NC(=O)c2ccnn2C)CC1
→ 1	0.2	-4.5	-2	0.7%	1
CCOc1ccc(NS(=O)(=O)c2ccc(C(=O)NCc3ccncc3)cc2)cc1
→ -5	7.4	2.7	-4	-0.6%	8
CC/C(O)=C(/C#N)c1nnc2n1CCCCC2
→ -1	-0.4	-0.5	-10	1.8%[38.3 µM]	6
CCN1CCN(c2nc(Nc3cccc(C)c3)nc(N)c2[N+](=O)[O-])CC1
→ -27	-0.9	-6.2	-15	8.5%	-21
C=CCC(NCc1ccccc1)c1ccc(OC)cc1 (configuration not stated)
→ 7	-0.3	-6.3	-6	5.1%	13
CCCCc1ccc(NC(=O)c2cnccn2)cc1
→ -1	0.7	-4.5	-2	1.7%	5
CC1=NN(c2ccccc2)C(=O)C1N=Nc1ccccc1 (configuration not stated)
→ -21	-0.4	0.2	-5	u	-18
O=C(NC1(C(F)(F)F)C(=O)Nc2c1c(=O)[nH]c(=O)n2Cc1ccco1)C1CC1 (configuration not stated)
→ 3	-0.8	-3.0	-6	-1.3%	3
O=C(CCCc1c[nH]c2ccccc12)N1CCN(S(=O)(=O)c2cccs2)CC1
→ -12	-0.9	1.4	-1	-3.3%	0
NC(=NCCc1ccccc1)NS(=O)(=O)c1cccs1
→ 5	-0.8	-2.3	3	-0.3%	3
CCc1nc2ccc(C(=O)NC3CCN(Cc4ccccc4)CC3)cn2c1N(C)CCN1CCOCC1
→ 1	-0.4	-3.3	-25	-0.5%	-9
CCC1CCCCN1C(=S)NC(=O)c1cc(S(=O)(=O)N2CCOCC2)ccc1C (configuration not stated)
→ -2	0.1	0.6	-11	0.6%	1
COc1ccc(CNC(=O)/C=C/c2ccco2)cc1OC
→ 14	0.8	1.3	-2	-0.1%	0
CC1CN(C(=O)C(C)Sc2nc3ccccc3s2)CC(C)O1 (configuration not stated)
→ 3	-1.2	-1.8	-3	-2.0%	-2
O=C(CC1C(=O)NCCN1Cc1c(F)cccc1Cl)NC1CCCC1 (configuration not stated)
→ -1	0.6	0.3	-5	-0.7%	5
CNC(=S)Nc1cc(C)ccc1OC(F)F
→ 0	-0.3	2.3	-4	0.8%	4
c1ccc2c(c1)NCCS2
→ 12	0.2	-2.8	-13	-1.1%	-11
COc1cc(CNC23CC4CC(CC(C4)C2)C3)ccc1OCc1ccccc1
→ -4	1.0	-10	0	16%	-1
COc1ccccc1NC(=O)COC(=O)CNC(=O)C1CCCCC1
→ -1	-0.8	-0.8	-3	1.7%	3
O=C(CSc1nnc(-c2ccccc2F)o1)NC1CCCCC1
→ -1	-0.3	-1.7	-3	0.7%	4
CC(=O)n1cc(/C=N/NC(=O)c2cccc(O)c2)c2ccccc21
→ u	-0.2	3.5	5	2.8%	-21
Cn1ccnc1C(=O)c1ccccc1Cl
→ 2	-0.5	-5.8	-6	0.7%	24
COc1cc(NS(=O)(=O)c2ccc(NC(=S)NC(=O)/C=C/c3ccco3)cc2)ncn1
→ u	1.1	3.2	-5	7.7%	-16
CCOc1ccc(-c2nnc3sc(-c4ccccc4OC)nn23)cc1
→ 1	0.0	-0.5	0	5.3%[38.3 µM]	6
CCOc1ccc(CCNC(=O)c2nnn(CC(=O)Nc3ccc(OC)c(OC)c3)c2N)cc1OCC
→ 0	0.5	5.5	5	5.6%	-1
O=C(COC(=O)CCC(=O)c1cccs1)Nc1cccc(S(=O)(=O)N2CCOCC2)c1
→ -1	0.2	-2.4	-2	2.6%	1
CCC(=O)NC(=S)Nc1cccc(-c2nc3ncccc3o2)c1
→ -7	-0.4	1.0	-14	-1.7%	2
CCOC(=O)C1CCN(C(=O)C2(NC(=O)NC3CCCCC3)CCCCC2)CC1
→ 0	-1.0	-2.0	-7	-1.3%	9
